TRPML1 inh – human mucolipin-1 channel inhibition; TRPML1-inducible cells, Ca2+ dye fluorescence, FDSS; hits give low values; inhibition of EC80 agonist-evoked calcium signal; activity change, negative = inhibition, % (concentration not given with the values); 390,000 tested, 0.02% active; AID 624415; in the data active means activity change below about -50%; inconclusive means about -30% to -50%; inactive means above about -30%;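 also: stimulus is agonist 54-4 at its EC80 concentration; % is scaled to controls: 0 for no effect and ±100 for the full control effect; compound concentration not given in the record; the text of the record puts the active cut at -80%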
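TRPML1-DL cells, Tet-induced overnight (~16 h, 37 °C) at 1,500 cells/well, were loaded with Ca8 no-wash dye plus quencher for 45-90 min at room temperature. Compounds were pinned during FDSS kinetic reading; agonist 54-4 at EC80 (4 uM final) then added.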
Six1-Eya2 inh – Six1/Eya2 interaction inhibition; 360,000 tested, 0.56% active; AlphaScreen GST-Six1/His-Eya2 binding, biochemical; hits give low values; control for the full effect not named in the record; Q15475+O00167; activity change, % (no concentration beside the values); in the data active = activity change below about -65%; inconclusive = about -30% to -65%; inactive = above about -30%; also: % is scaled to controls: 0 for no effect and ±100 for the full control effect; compound concentration not given in the record
Target sequence (O00167 whole entry, looked up): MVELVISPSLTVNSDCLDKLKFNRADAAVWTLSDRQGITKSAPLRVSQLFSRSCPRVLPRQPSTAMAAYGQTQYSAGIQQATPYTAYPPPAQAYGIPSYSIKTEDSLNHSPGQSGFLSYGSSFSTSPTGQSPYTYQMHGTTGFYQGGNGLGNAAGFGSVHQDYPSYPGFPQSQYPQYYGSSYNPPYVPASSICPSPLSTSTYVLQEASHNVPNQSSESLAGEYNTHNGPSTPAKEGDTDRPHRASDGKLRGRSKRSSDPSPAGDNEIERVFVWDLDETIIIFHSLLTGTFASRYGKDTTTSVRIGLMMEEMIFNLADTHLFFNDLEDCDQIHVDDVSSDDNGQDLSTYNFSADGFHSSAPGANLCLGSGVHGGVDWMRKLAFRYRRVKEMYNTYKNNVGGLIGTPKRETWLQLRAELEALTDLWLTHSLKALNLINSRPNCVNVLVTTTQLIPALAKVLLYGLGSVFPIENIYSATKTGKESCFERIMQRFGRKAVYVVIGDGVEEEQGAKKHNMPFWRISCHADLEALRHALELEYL
Target sequence (Q15475 whole entry, looked up): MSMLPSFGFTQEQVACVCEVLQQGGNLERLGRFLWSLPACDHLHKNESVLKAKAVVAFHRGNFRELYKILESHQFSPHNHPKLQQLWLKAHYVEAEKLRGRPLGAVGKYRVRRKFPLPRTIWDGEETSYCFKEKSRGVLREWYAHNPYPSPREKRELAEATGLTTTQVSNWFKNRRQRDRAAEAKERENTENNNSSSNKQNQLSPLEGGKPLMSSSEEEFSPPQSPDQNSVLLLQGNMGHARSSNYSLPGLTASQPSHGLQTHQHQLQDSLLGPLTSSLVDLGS
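GST-Six1 + His-Eya2 (5X stock: 250/500 nM); Tris pH 8.0, 300 mM NaCl, 0.05% BSA, 0.02% Tween 20; GSH donor/Ni acceptor beads; 1 h 37 °C dark; AlphaScreen readout.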
PINK1 modulator – modulators of PINK1 expression; PINK1 immunofluorescence, high-content cytometry, 24 h; Potency, µM (top dose mostly 76.6 µM), without a hit: top-dose activation (PINK1 increase), most hits filed as activators; 410,000 tested, 0.2% active; active = well fitted activation curve with a large enough effect; inconclusive = small, poorly fitted or top-dose-only effect; inactive = flat fitted curve, though single readings scatter; cell line not stated here;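 also: potency is read from the fitted curve at half-maximal effect; % of control where 0% means no effect; nearly all actives have a fitted effect of over 65% in size; a mitochondrial uncoupler was the plate control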
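Cells are seeded, rested 12 hours, then given compound at five concentrations or DMSO for 24 hours. After fixation, blocking and antibody staining, PINK1 amount and mitochondrial localization are scored; CCCP serves as control.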
TRPML1 ag – human mucolipin-1 channel agonism | Q9GZU1 | TRPML1-expressing cells, Ca2+ dye fluorescence, FDSS; host cell line not named in the record; reference of the full effect not given here | activation, % (test concentration not listed) | 410,000 tested, 0.12% active | AID 624414; in the data active = activation above about 50%; inconclusive = about 30% to 50%; inactive = below about 30%; also: 0% is about no effect; the text of the record puts the active cut at 80%
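Agonist activity was taken from a 110 s kinetic Ca2+ dye read on the FDSS after pinning compounds onto TRPML1-DL cells. The cells were seeded at 1,500/well with Tet inducer, incubated about 16 h, then dye-loaded at room temperature.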
D2 agonist – activates the human D2 dopamine receptor; 360,000 tested, 0.084% active; DiscoveRx PathHunter D2 beta-arrestin, luminescence, 90 min; 100% = 57 uM dopamine signal; activation, % (concentration not given with the values); P14416; in the data active = activation above about 40%; inconclusive = about 15% to 40%; inactive = below about 15%; also: compound concentration not given in the record; the text of the record calls up to 30% inactive
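DiscoveRx PathHunter D2 beta-arrestin cells (2,100/well) attached overnight, then compound-stimulated 90 min at 37 C in HBSS/10 mM HEPES/0.1% Tween-20 buffer; beta-galactosidase complementation read by luminescence after 1 h at ambient temperature. Dopamine 57 uM final (EC100) as control.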
D2 PAM – human D2 receptor positive allosteric modulation; P14416; DiscoveRx D2 beta-arrestin cells, luminescence, 90 min; 100% = 57 uM dopamine signal; potentiation, % (test concentration not listed); 360,000 tested, 0.23% active; active = potentiation of 50% or more; inconclusive = 30% to 50%; inactive = 30% or less;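 also: compound concentration not given in the record; tested on top of an EC20 dose of dopamine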
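PathHunter beta-arrestin assay in DiscoveRx D2 cells. Compounds were added with an EC20 of dopamine (50 nM final) for 90 min at 37 deg C. Luminescence was read 1 h after detection reagent, with 57 uM dopamine as the EC100 control.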
* marks the source's active call; other numbers are inactive results; u = inconclusive; x = no result given; [ ] = dose if it differs, or a comment.

SMILES	TRPML1 inh	Six1-Eya2 inh	PINK1 modulator	TRPML1 ag	D2 agonist	D2 PAM
CC(/C=N/NC(=O)c1nnn(-c2nonc2N)c1CN1CCCCC1)c1ccccc1 (configuration not stated)	19	20	1.1%	-0.2	2.1	1
CC(=O)Nc1cncc(-c2ccccc2C(C)=O)n1	x	4	1.0%	-0.5	3.2	-6
COc1ccc(/C(O)=C2\C(=O)C(=O)N(c3cc(C)on3)C2c2cccc(OC)c2OC)cc1C (configuration not stated)	-4	-1	1.2%	-0.2	-2.1	-1
COc1ccc(CCNC(=O)CCCc2ccccc2)cc1	51	3	1.7%	-0.1	9.3	-7
CC(=O)NCc1nnc2c3ccccc3c(-c3ccccc3)nn12	-6	-4	2.2%	0.9	4.9	-1
COc1ccccc1N1CCN(S(=O)(=O)CCNC(=O)COc2ccc(C(C)C)cc2)CC1	-13	x	-0.1%	2.6	x	x
O=C(CSc1nnnn1-c1ccccc1)N1CCc2ccccc21	-10	4	1.9%[38.3 µM]	0.8	0.2	0
CCn1c(Cc2ccccc2)nnc1SCC(=O)c1cccc([N+](=O)[O-])c1	-9	-1	x	0.4	1.6	-6
CCCc1nn2c(-c3ccccc3)nnc2o1	9	-12	-1.1%	-0.6	-3.6	-3
COC(=O)c1cc2c(C)cc3ccc(C)cn3c-2c1C(=O)OC	-6	u	7.6%	7.2	-4.2	-2
CCCCC[C@H](C)N1C[C@H](COCc2ccccc2)Oc2cc(N3CC[C@H](N(C)C)C3)ccc2S1(=O)=O	x	u	-1.3%	-0.6	x	x
Cc1cc2c(cc1S(=O)(=O)NCc1ccc(F)cc1)OCCN2C	9	x	4.1%	-0.7	x	x
O=C(COc1ccccc1)Nc1ccc(OC(F)(F)C(F)F)c(NC(=O)COc2ccccc2)c1	-8	28	x	1.9	-1.1	-28
CCCCSc1nc(CCC)cc(=O)[nH]1	1	5	-4.6%	-0.7	2.8	-11
O=C(CC(=O)NCc1ccc(Cl)cc1)NCc1ccccc1	13	-4	-0.1%	-0.7	-4.3	-4
CC1CCc2c(sc(NC(=O)CCCOc3ccccc3)c2C(N)=O)C1 (configuration not stated)	26	x	8.9%	5.0	x	x
Cc1ccccc1OCC(=O)Nc1ccc(Cc2ccncc2)cc1	-21	-12	0.5%	-0.4	-4.9	-1
Cc1cc(C)n(CC(=O)c2ccc(Br)cc2)c(=O)c1C#N	-4	-3	13%[38.3 µM]	-0.1	-1.1	-10
CCOC(=O)[C@@H]1[C@H]2COc3ccccc3[C@@H]2N2C(=O)N(c3ccc(C(F)(F)F)cc3)C(=O)[C@@]12C	-17	2	-0.2%	0.2	-2.6	-3
CC1=C(C#N)C(c2cn(-c3ccccc3)nc2-c2cccs2)C(C#N)=C(C)N1	6	-10	-1.3%[38.3 µM]	1.4	3.3	11
Cc1cc(NCCCN2CCOCC2)n2ncc(-c3ccccc3)c2n1	26	-7	-2.2%	1.3	-2.5	-9
CCCCN(Cc1nc2ccccc2c(=O)[nH]1)C(=O)COc1ccc(F)cc1Cl	5	-5	6.5%	-0.6	-4.7	-6
Cc1cccc(NC(=O)CCc2nc3sc4c(c3c(=O)[nH]2)CCCC4)n1	6	u	0.9%	1.3	-4.0	-8
C=CCSc1nncn1/N=C/c1ccc(OC)cc1	1	-5	-1.2%	-0.3	-3.2	-3

Copied from above (17 entries):
SMILES	TRPML1 inh	Six1-Eya2 inh	PINK1 modulator	TRPML1 ag	D2 agonist	D2 PAM
CCn1c(Cc2ccccc2)nnc1SCC(=O)c1cccc([N+](=O)[O-])c1	-9	-1	x	0.4	1.6	-6
CCCc1nn2c(-c3ccccc3)nnc2o1	9	-12	-1.1%	-0.6	-3.6	-3
COC(=O)c1cc2c(C)cc3ccc(C)cn3c-2c1C(=O)OC	-6	u	7.6%	7.2	-4.2	-2
CCCCC[C@H](C)N1C[C@H](COCc2ccccc2)Oc2cc(N3CC[C@H](N(C)C)C3)ccc2S1(=O)=O	x	u	-1.3%	-0.6	x	x
Cc1cc2c(cc1S(=O)(=O)NCc1ccc(F)cc1)OCCN2C	9	x	4.1%	-0.7	x	x
O=C(COc1ccccc1)Nc1ccc(OC(F)(F)C(F)F)c(NC(=O)COc2ccccc2)c1	-8	28	x	1.9	-1.1	-28
CCCCSc1nc(CCC)cc(=O)[nH]1	1	5	-4.6%	-0.7	2.8	-11
O=C(CC(=O)NCc1ccc(Cl)cc1)NCc1ccccc1	13	-4	-0.1%	-0.7	-4.3	-4
CC1CCc2c(sc(NC(=O)CCCOc3ccccc3)c2C(N)=O)C1 (configuration not stated)	26	x	8.9%	5.0	x	x
Cc1ccccc1OCC(=O)Nc1ccc(Cc2ccncc2)cc1	-21	-12	0.5%	-0.4	-4.9	-1
Cc1cc(C)n(CC(=O)c2ccc(Br)cc2)c(=O)c1C#N	-4	-3	13%[38.3 µM]	-0.1	-1.1	-10
CCOC(=O)[C@@H]1[C@H]2COc3ccccc3[C@@H]2N2C(=O)N(c3ccc(C(F)(F)F)cc3)C(=O)[C@@]12C	-17	2	-0.2%	0.2	-2.6	-3
CC1=C(C#N)C(c2cn(-c3ccccc3)nc2-c2cccs2)C(C#N)=C(C)N1	6	-10	-1.3%[38.3 µM]	1.4	3.3	11
Cc1cc(NCCCN2CCOCC2)n2ncc(-c3ccccc3)c2n1	26	-7	-2.2%	1.3	-2.5	-9
CCCCN(Cc1nc2ccccc2c(=O)[nH]1)C(=O)COc1ccc(F)cc1Cl	5	-5	6.5%	-0.6	-4.7	-6
Cc1cccc(NC(=O)CCc2nc3sc4c(c3c(=O)[nH]2)CCCC4)n1	6	u	0.9%	1.3	-4.0	-8
C=CCSc1nncn1/N=C/c1ccc(OC)cc1	1	-5	-1.2%	-0.3	-3.2	-3

The list goes on.
SMILES	TRPML1 inh	Six1-Eya2 inh	PINK1 modulator	TRPML1 ag	D2 agonist	D2 PAM
CCn1cc(C2C(C(=O)Nc3cc(C)ccn3)=C(C)NC3=C2C(=O)CC(C)(C)C3)c(C)n1 (configuration not stated)	-7	6	0.4%	0.2	-3.5	2
CCc1ccccc1N(C)C(=O)c1nn(C)c2c1CSc1ccccc1-2	9	x	0.3%	0.2	x	x
Cc1ccc2oc(Nc3nc(-c4ccccc4)cc(=O)[nH]3)nc2c1	1	-2	3.1%	2.6	-2.9	-4
O=C(O)C1OC(Oc2cc3oc(-c4ccccc4)cc(=O)c3c(O)c2O)C(O)C(O)C1O (configuration not stated)	8	-16	3.5%	-0.6	-1.2	-9
O=S(=O)(c1cccc2cccnc12)N1CCN(c2ccccc2)CC1	4	-1	2.3%[38.3 µM]	-0.6	-2.1	-3
CCOCc1nnc(NC(=O)COc2ccc3c(c2)OCO3)s1	-13	1	0.5%	-0.1	-2.0	-7
Cc1ccc(NS(=O)(=O)N2CCOCC2)cc1Cl	3	0	0.3%	-0.5	-1.3	-10
CC1CCCC(NC(=O)COC(=O)c2ccc3ncsc3c2)C1C (configuration not stated)	2	20	2.5%	0.2	-1.1	-4
O=C(O)c1ccc(NS(=O)(=O)c2ccc(Cl)cc2)cc1	6	3	8.0%[38.3 µM]	-0.5	-0.8	2
CCOc1ccc(NC(=O)COC(=O)c2ncc(Cl)c(Cl)c2Cl)cc1	-13	5	9.5%	0.0	-1.2	4
OCCC1CN(Cc2cc(F)ccc2F)CCN1CCCc1ccccc1 (configuration not stated)	1	-1	-0.3%	0.3	-7.0	-6
Cc1ccc(Cl)cc1N1CCN(C(=O)c2c(C)oc3ncnc(N4CCCCC4)c23)CC1	-6	x	7.2%	2.4	x	x
CCOc1ccc(Nc2c3c(nc4ncnn24)CC(C)CC3)cc1 (configuration not stated)	7	0	0.3%	1.2	2.2	-8
C[C@H](CO)N1C[C@H](C)[C@@H](CN(C)C(=O)Nc2ccccc2)Oc2ccc(NS(=O)(=O)c3cn(C)cn3)cc2C1=O	32	-13	-0.4%	-0.4	-1.7	-2
CCCn1c(CN(Cc2ccccc2)Cc2ccccc2)nc2c1c(=O)n(C)c(=O)n2C	-11	-4	1.7%	0.0	-1.7	-9
O=C(COC(=O)C1=COCCO1)Nc1c(F)cccc1F	-10	9	-4.3%	-0.3	1.4	-63
O=C(Nc1ccnn1C1CCN(C/C=C/c2ccccc2)CC1)c1cccc(F)c1	-1	0	0.6%	-0.1	0.1	-31
COc1ccc(CCN2C(=O)CCC2(C)c2nnnn2-c2c(C)cccc2C)cc1OC (configuration not stated)	x	0	-0.8%	-0.5	x	x
CCOC(=O)C(=Nc1ccc(Cl)cc1)NO	-12	8	0.1%	0.7	0.8	-23
CN(C)c1ccc(CN(C(=O)C2COc3ccccc3O2)C2CCS(=O)(=O)C2)cc1 (configuration not stated)	-8	-17	-6.1%[38.3 µM]	-0.5	-0.9	7
COc1cc(C2NC(=O)c3ccccc3O2)ccc1OC(C)C (configuration not stated)	-13	22	-1.7%	-0.2	-6.7	-9
Cc1ccc(NC(=O)CSc2ncccc2C(=O)Oc2ccccc2Cl)cc1Cl	13	x	0.6%	0.7	x	x
c1cc(CN2CCN(C3CCCCCC3)CC2)ccn1	-10	2	-1.5%	0.5	-6.5	-17
CCc1ccc(S(=O)(=O)c2nnn3c2nc(NC(C)C)c2sccc23)cc1	-13	x	0.1%	0.0	x	x

Full records from above.
`COc1ccc(/C(O)=C2\C(=O)C(=O)N(c3cc(C)on3)C2c2cccc(OC)c2OC)cc1C` (configuration not stated) is entered as TRPML1 inh: -4; Six1-Eya2 inh: -1; PINK1 modulator: 1.2%; TRPML1 ag: -0.2; D2 agonist: -2.1; D2 PAM: -1
`O=C(CC(=O)NCc1ccc(Cl)cc1)NCc1ccccc1` is entered as TRPML1 inh: 13; Six1-Eya2 inh: -4; PINK1 modulator: -0.1%; TRPML1 ag: -0.7; D2 agonist: -4.3; D2 PAM: -4

(cont.)
SMILES	TRPML1 inh	Six1-Eya2 inh	PINK1 modulator	TRPML1 ag	D2 agonist	D2 PAM
O=C(CSc1ncnc2c1nnn2-c1ccc(F)cc1)NCc1ccco1	-5	-4	-1.4%	-1.3	-4.0	1
N#Cc1ncn(C2OC(CO)C(O)C2O)c1N (configuration not stated)	2	4	-0.1%	0.0	-6.2	-5
CCOc1ccccc1N1CCN(CC(=O)Nc2cc(C)on2)CC1	-2	-9	-1.6%	-0.4	-0.7	-19
Cc1ccc(NC(=O)c2ccc(CSc3nnnn3C)cc2)cc1	-14	4	2.1%	1.2	-2.1	-3
O=C(CSc1c2c(nc3ccc(Cl)cc13)CCCC2)NCc1ccco1	-1	-1	1.5%	1.5	-2.1	-4
CCCCNC(=O)c1nc(C2CCN(S(=O)(=O)c3ccccc3C(F)(F)F)CC2)oc1-c1cccc(C(F)(F)F)c1	x	2	-0.2%	-0.7	-5.1	1
CCn1cc(CNC(=O)/C=C/c2ccc([N+](=O)[O-])cc2)cn1	-15	3	1.6%	-0.3	5.2	2
OC(COc1ccc(C2C=CCC2)cc1)CN1CCCCC1 (configuration not stated)	2	3	-1.5%[38.3 µM]	0.8	-1.8	-15
COc1ccc(-n2c(C)cc(C)c(C(C)=O)c2=S)cc1	4	14	1.5%	-0.3	-1.0	1
NC(=O)COc1ccc(-n2cnnn2)cc1	12	-4	-0.1%	1.2	-2.0	-5
CC(C)(C)C(=O)N1N=C(c2ccc(NS(C)(=O)=O)cc2)CC1c1cccs1 (configuration not stated)	40	6	3.8%	1.8	-1.4	0
